Source: PubChem BioAssay
miR-21 reporter: raises the signal of a miR-21 reporter; 340,000 tested, under 10 active; HeLa miR-21 FLuc reporter, luciferase, 48 h; Potency, µM (top dose mostly 38.3 µM), without a hit: top-dose reporter change, positive = more light; active = well fitted rising curve with a large enough effect; inconclusive = small, poorly fitted or top-dose-only effect; inactive = no such curve, though single readings can be large or run the other way;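 note: % of control where 0% means no effect; miR-21 action dims this reporter so a rising signal means less miR-21 action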
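Compounds were titrated across several concentrations (up to approximately 40 uM) and incubated 48 hours with HeLa miR-21-FLuc reporter cells (miR-21 target sequence downstream of FLuc, endogenous miR-21). Readout was firefly luciferase luminescence after lytic detection reagent.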
Rango release inh: prevents RanGTP from dissociating the Rango-importin beta complex. Biochemical FRET Rango-importin beta, RanGTP-induced dissociation. hit rate 0.071% among 340,000. Potency, µM (titrated, usually from 46.1 µM), inactives show at the highest dose activity change, negative = inhibition. O95149+P62826; active means falling FRET ratio curve, often poorly fitted, with flat reads before Ran was added; inconclusive means other falling curves, or compound fluorescence or quenching; inactive means flat or rising ratio curve;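 note: potency is the fitted concentration of half-maximal effect; % of control where 0% means no effect; nearly all actives have a fitted effect of over 45% in size; -100% = wells without RanGTP and RCC1; the record marks most hits as doubtful in a second field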
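FRET read at 45 min, room temperature: inhibitors block the CFP/YFP signal rise when RanGTP (0.6 uM Ran, 2 mM GTP, 0.2 uM RCC1) frees Rango (0.1 uM) from importin beta (0.25 uM). Pre-read after 5 min compound exposure flags interference.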
Rango complex inh: prevents formation of the Rango-importin beta complex; Q14974; Rango CFP/YFP FRET sensor + importin beta, 45 min; Potency, µM (top dose mostly 92.2 µM), for inactives: at the highest dose inhibition of complex formation; hit rate 0.031% among 340,000; AID 540263; active = rising FRET ratio curve, often small or poorly fitted; inconclusive = mostly compound fluorescence or quenching in the first reads; inactive = flat curves in all reads;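 note: potency is the fitted concentration of half-maximal effect; 0% = DMSO wells and 100% = buffer wells lacking importin beta; nearly all actives have a fitted effect of over 15% in size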
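FRET biosensor (snurportin 1 IBB flanked by EYFP and cerulean), 50 nM, with compound 5 min, then 0.125 microM importin beta in PBS, 1 mM DTT, 0.02% Tween-20, 0.1% BSA. CFP/YFP ratio read after 45 min at room temperature; pre-read flags interference.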
GLA inh pH 4.5: inhibitors of human alpha-galactosidase A at pH 4.5. P06280. purified enzyme, 4-MU-alpha-Gal fluorescence, pH 4.5. activity change, negative = inhibition, % at 105 µM. 230,000 tested, under 10 active; inconclusive = small, poorly fitted or top-dose-only inhibition, or a rising curve; inactive = flat fitted curve, though single readings scatter; no compound was filed as active;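 note: 0% = full activity with enzyme and -100% = basal without enzyme; dose as in the result columns while the protocol names 77 µM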
Target sequence (P06280 whole entry, looked up): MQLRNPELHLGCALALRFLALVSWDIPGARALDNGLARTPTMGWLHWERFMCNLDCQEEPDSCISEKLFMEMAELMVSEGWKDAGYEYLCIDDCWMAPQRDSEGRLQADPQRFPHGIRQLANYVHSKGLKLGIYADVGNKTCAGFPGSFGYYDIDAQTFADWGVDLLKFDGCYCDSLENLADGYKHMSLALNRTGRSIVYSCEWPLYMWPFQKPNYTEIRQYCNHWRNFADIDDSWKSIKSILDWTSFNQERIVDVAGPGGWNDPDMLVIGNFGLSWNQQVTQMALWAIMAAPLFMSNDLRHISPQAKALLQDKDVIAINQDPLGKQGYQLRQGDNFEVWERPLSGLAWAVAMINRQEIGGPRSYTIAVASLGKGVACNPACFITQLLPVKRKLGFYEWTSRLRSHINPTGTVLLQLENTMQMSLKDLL
* marks the source's active call; other numbers are inactive results; ? = inconclusive; . = no result given; & = joins results of further samples.

SMILES	miR-21 reporter	Rango release inh	Rango complex inh	GLA inh pH 4.5
COc1ccc(NS(=O)(=O)c2ccc(Cl)c(NC(=O)c3cccnc3Cl)c2)cc1	4.2%	26.5%	2.1%	-6.8
O=C(NC1CCCC1)C(c1cccnc1)N(C(=O)c1csnn1)C1CC1 (stereo not given)	0.1%	-7.3%	1.1%	-5.9
Cc1ccccc1C(=O)N1CCC(n2nccc2NC(=O)C2CC2)CC1	0.4%	6.2%	-1.1%	.
COc1ccc(S(=O)(=O)N2CC(O)CC2C(=O)OCc2nc3sc(C)c(C)c3c(=O)[nH]2)cc1 (stereo not given)	-8.3%	-20.2%	-1.5%	4.7
COc1ccc(NS(=O)(=O)c2ccc(N3CCOCC3)c(N)c2)cc1	.	-19.8%	2.2%	.
c1ccc(-c2nccc(-c3ccc(-n4cnc5ccccc54)cc3)n2)cc1	-8.5%	7.8%	0.1%	-6.5
CSc1ccc(CCNC(=O)Cn2ncc3c([nH]c4ccccc43)c2=O)cc1	0.7%&-0.9%	?	-3.3%	.
Clc1ccc(COn2c(-c3ccc(Cl)cc3Cl)nc3ncccc32)cc1	8.6%	2.1%	-1.1%	-9.9
CCOC(=O)c1ccc(NC(=O)c2nc[nH]c2C(=O)N[C@@H](Cc2ccccc2)C(=O)OC(C)(C)C)cc1	-1.3%	-9.4%	4.1%	-10.1
c1ccc(CNc2ncnc3ccccc23)cc1	29.6%&22.1%	-2.9%&1.0%	0.5%&5.1%	2.1
CCS(=O)(=O)c1ccc2oc(Nc3ccccc3Cl)nc2c1	-82.0%	-7.5%	-0.3%	.
CC(=O)Nc1ccc(NC(=O)c2cccc(S(=O)(=O)N(C)C3CCCCC3)c2)cc1	.	8.2%	-0.3%	.
O=S(=O)(CCNCCc1ccccc1)NC1CCCCC1	.	-1.1%	4.2%	.
CCN(CC)c1ccc(NC(=O)CN2C(=O)CSc3ncccc32)c(C)c1	0.0%	7.8%	-6.9%	-5.3
C/C(CC(=O)Nc1ccc(N(C)C)cc1)=N\NC(=O)Cc1csc(N)n1	-11.3%	0.5%	3.0%	-11.5
O=C(NCc1ccco1)c1ccc2[nH]c(=O)c(=O)[nH]c2c1	-1.1%	-3.9%	0.1%	.
O=C(O)c1cc(S(=O)(=O)N2CC=C(c3ccccc3)CC2)ccc1O	.	-7.5%	0.3%	.
Cc1nn(-c2ccccc2)c(Cl)c1/C=C/C(=O)c1ccc(O)cc1	-26.3%	-11.4%	-2.2%	1.1
CC(=O)N(C)c1ccc(C=C2C=Cc3ccccc32)cc1	.	20.5%	1.6%	.
CC1(C)CC(=O)C2=C(C1)NC(=O)NC2c1ccccc1Cl (stereo not given)	.	14.1%	4.1%	.
CCOC(=O)C1(CCOc2ccccc2)CCN(CCCn2cccn2)CC1	-2.6%	-3.6%	-3.1%	-4.6
Cc1ccc(S(C)(=O)=O)cc1C(=O)OCC(=O)N(Cc1ccccc1)Cc1ccccc1	.	8.3%	-3.4%	.
Cc1nc(C(F)(F)F)ccc1C(=O)NCC(O)c1ccccc1 (stereo not given)	-49.1%	-3.0%	-0.7%	.
Cc1cc(C)c(S(=O)(=O)c2ccccc2C)c(N(C)C)n1	0.5%	17.3%	0.8%	4.3
CN1CCC(N(C)C(=S)NCCc2ccccc2)CC1	-21.5%	-6.6%	-0.2%	-10.3
CCSc1nc(-c2ccccc2)nc2c1CCCC2	-0.4%	-7.7%	0.0%	-11.9
O=S(=O)(c1ccc2nnn(O)c2c1)N1CCOCC1	.	16.2%	4.8%	.
Cc1c(Cl)cnc(NC(=O)COC(=O)c2cc3c(s2)CCC(C)C3)c1Cl (stereo not given)	-1.5%	7.4%	?	1.6
Cc1ccnc(SCC(=O)Nc2sccc2C#N)n1	-23.0%	1.2%	2.4%	.
O=C(c1ccccc1)[C@@H]1[C@@H]2C(=O)N(c3ccc(F)cc3)C(=O)[C@@H]2C2CCCN21 (stereo not given in full)	1.7%	-7.2%	?	-0.6
CCS(=O)(=O)N1CCc2cc(OC)c(OC)cc2C1	-0.4%	6.2%	-2.4%	3.9
O=[N+]([O-])c1cccc(/C=C/c2nc(C=Nc3ccccc3)c(O)o2)c1	-2.8%	?	?	-1.6
COc1cc(-c2nc(CN3CCN(C(=O)c4ccco4)CC3)c(C)o2)ccc1F	2.7%	-4.6%	-1.6%	.
O=C(N/N=C/c1cccc(Br)c1)c1ccc(Br)cc1	-30.1%	-13.1%	0.2%	-3.2
COc1ccc(CCNC(=O)CSc2nnnn2-c2ccccc2)cc1	-1.0%	-8.9%	-1.9%	-8.2
COc1cc(C(c2c(C)n(C)n(-c3ccccc3)c2=O)c2c(C)n(C)n(-c3ccccc3)c2=O)cc(Br)c1O	0.7%	0.4%	-0.2%	.
Cc1ccc(Cn2nnnc2CN2CCC(O)(c3cccnc3)CC2)cc1	-2.9%	0.5%	-0.2%	-19.8
Nc1cc(=O)nc(SCc2ccccc2)n1Cc1ccco1	2.0%	20.5%	-0.5%	-2.7
COc1cccc(Cn2c(NCc3ccco3)nc3c2c(=O)n(C)c(=O)n3C)c1	19.9%	-1.0%	-4.0%	8.7
COc1nc(NCCO)nc(Nc2ccc([N+](=O)[O-])cc2)n1	-9.5%	2.5%	0.1%	-2.8
Cc1cccc(C)c1NS(=O)(=O)c1ccc(F)cc1	-2.0%	-14.5%	-2.6%	7.1
O=C(/C=C/c1ccccc1)NC(=S)Nc1ccc(N2CCOCC2)c(Cl)c1	-1.2%	-16.3%	-4.4%	3.3
COC1OC(COCc2ccccc2)C(N)C(OCc2ccccc2)C1OCc1ccccc1 (stereo not given)	.	-2.5%	0.0%	.
COc1cccc(-c2nc(CC(=O)O)cs2)c1OC	-9.7%	3.2%	1.1%	4.0
Cc1ccc(C(=O)N2CCN(S(=O)(=O)c3ccccc3[N+](=O)[O-])C2)cc1	-40.6%	4.1%	-0.4%	1.4
COC(=O)[C@@]1(Cc2ccc(F)cc2)[C@H]2c3cc(C(=O)N(C)C)n(Cc4ccccn4)c3C[C@H]2CN1C(=O)c1ccccc1	-8.9%	?	0.3%	-6.4&-1.8
CC(C(=O)NC(C)(C)C)N(Cc1cccs1)C(=O)CCN1CCc2ccccc21 (stereo not given)	2.0%	-24.6%	-1.6%	4.1
CC(C)c1ccc(NCCC(=O)c2ccc(Br)cc2)cc1	-4.4%	-6.0%	-0.4%	-8.9
CSc1ncc(C(=O)Nc2ccc(Cl)cc2)c(C)n1	-9.3%	?	0.0%	.
CCSc1ccc(-c2ccc(C)cc2)nn1	-30.0%	-11.1%	2.1%	-0.6
The list goes on.
SMILES	miR-21 reporter	Rango release inh	Rango complex inh	GLA inh pH 4.5
CCCNC(=O)c1ccccc1NC(=O)CN(c1ccccc1OCC)S(C)(=O)=O	-5.3%	1.6%	-2.9%	-1.6
CCC[C@@H]1C[C@@H](C(=O)NC(C(C)Cl)[C@H]2O[C@H](SC)[C@H](O)[C@@H](O)[C@H]2O)N(C)C1 (stereo not given in full)	-0.6%	-14.2%	?	-4.5
CN(CC(=O)Nc1ccc(Cl)c(C(F)(F)F)c1)C(=O)Cc1cccs1	4.3%	-4.3%	0.6%	.
CCOc1ccc(NC(=O)CNC(=O)c2ccc(OC)c(OC)c2)cc1	5.5%	2.8%	0.3%	13.1
COc1ccc(CN2CCC(n3nccc3NC(=O)C3CC3)CC2)c(Cl)c1OC	-2.3%	0.0%	-2.6%	.
S=c1[nH]ccn1-c1cccc(Cl)c1	0.4%	-1.9%	0.7%	3.3
Cc1ccc(C(O)(C(=O)NN(C(=O)c2ccccc2)c2ccccc2)c2ccc(C)cc2)cc1	16.0%	2.5%	3.1%	6.0
COc1ccc(-c2ccc(=O)n(CC(=O)NCC3COCCO3)n2)cc1 (stereo not given)	.	11.9%	0.8%	.
CCc1ccccc1-n1c(SCC(=O)NC)nnc1-c1ccco1	3.2%	11.4%	-2.5%	.
Cn1nnc(NC(=S)NC(=O)c2cccc3ccccc23)n1	-2.8%	10.3%	-2.5%	.
NC(=O)C1CC(=O)N(Cc2ccc3c(c2)OCO3)C(=Nc2ccccc2)S1 (stereo not given)	-5.6%	-16.4%	0.2%	0.3
Cc1cccc(N2CC3=C(C2=O)C(c2ccccc2)NC(=O)N3C)c1 (stereo not given)	-1.1%	-5.0%	-1.4%	-6.6
Cc1ccc([N+](=O)[O-])cc1NC(=O)CN1CCC(C)CC1	0.8%	4.9%	1.8%	-4.8
CC1(C)CC(=O)C2=C(C1)OC(N)=C(C#N)C21C(=O)N(CN2CCOCC2)c2ccccc21 (stereo not given)	-4.2%	-15.5%	1.7%	-1.1
CCOc1ccc(NC(=O)CN2CCN(C(=O)c3ccco3)CC2)cc1S(=O)(=O)N1CCCC1	.	7.4%	-0.3%	.
CC(=O)Nc1cccc(NC(=O)COc2ccccc2C)c1	-0.6%	-9.7%	-1.1%	.
CCN(Cc1ccccc1)C(c1ccncc1)c1nnnn1C(C)(C)C (stereo not given)	3.5%	20.3%	-1.3%	1.8
N/C(=N\OC(=O)CCCN1C(=O)c2ccccc2C1=O)c1ccc(Cl)cc1	-1.1%	-4.9%	-0.6%	-4.5
CCN(CC)CCNC(=O)c1ccc(NC(=O)Cc2ccccc2F)cc1	4.4%	-2.7%	-2.3%	4.0
Cc1ccc(NS(=O)(=O)c2csc(C(N)=O)c2)cc1C	6.5%	0.2%	4.2%	.
CCOC(=O)N1CCC(NC(=O)c2cn(-c3ccc(OC)cc3)c(=O)c3ccccc23)CC1	1.9%	-9.0%	-4.1%	-8.8
CCOC(=O)C1(C)/C(=N/Nc2ccc(Cl)cc2)C(=O)C(=O)N1c1ccccc1 (stereo not given)	-6.7%	-9.5%	-0.6%	0.8
COc1ccccc1C1CC(c2cccs2)=Nc2ccccc2S1 (stereo not given)	5.1%	-23.3%	?	2.9
COc1ccccc1-c1nn(Cc2ccccc2)cc1C(=O)N1CCN(c2ncccn2)CC1	.	-0.7%	-5.4%	.
Cc1cc2c(cc1S(=O)(=O)Nc1cccc(F)c1)n(C)c(=O)c(=O)n2C	-0.2%	0.1%	2.4%	.
c1ccc2nc3ccccc3nc2c1	1.1%	2.8%	-2.9%	3.1
Cc1ccc(O)c(C(CC(=O)NCc2ccco2)c2ccccc2)c1 (stereo not given)	0.4%	-21.1%	-1.5%	-6.4
CCOC(=O)c1[nH]c(C)c(C(=O)Nc2ccc(Cl)cc2)c1C	-27.5%	-7.2%	-5.0%	4.6
C[C@@H](NC(=O)c1nc[nH]c1C(=O)NCc1ccccc1)c1ccccc1	.	7.7%	4.5%	.
Cc1cccc(C)c1NC(=O)CN(C)C(=O)c1cc(S(=O)(=O)N2CCOCC2)ccc1N1CCCC1	.	-0.5%	-0.2%	.

Laid out differently: entries from further up
structure: CCOC(=O)C1(C)/C(=N/Nc2ccc(Cl)cc2)C(=O)C(=O)N1c1ccccc1 (stereo not given)
  miR-21 reporter: -6.7%
  Rango release inh: -9.5%
  Rango complex inh: -0.6%
  GLA inh pH 4.5: 0.8
structure: COc1ccccc1C1CC(c2cccs2)=Nc2ccccc2S1 (stereo not given)
  miR-21 reporter: 5.1%
  Rango release inh: -23.3%
  Rango complex inh: ?
  GLA inh pH 4.5: 2.9
structure: COc1ccccc1-c1nn(Cc2ccccc2)cc1C(=O)N1CCN(c2ncccn2)CC1
  miR-21 reporter: .
  Rango release inh: -0.7%
  Rango complex inh: -5.4%
  GLA inh pH 4.5: .
structure: Cc1cc2c(cc1S(=O)(=O)Nc1cccc(F)c1)n(C)c(=O)c(=O)n2C
  miR-21 reporter: -0.2%
  Rango release inh: 0.1%
  Rango complex inh: 2.4%
  GLA inh pH 4.5: .

(more compounds)
SMILES	miR-21 reporter	Rango release inh	Rango complex inh	GLA inh pH 4.5
COc1ccccc1NC(=O)COC(=O)C12CC3CC(CC(Br)(C3)C1)C2	.	8.5%	1.9%	.
O=C(CCCOc1ccc(Cl)cc1Cl)N/N=C/c1ccco1	-7.9%	0.8%	-2.9%	-2.5
CCC(Oc1ccccc1)C(=O)Nc1cc(C)on1 (stereo not given)	-27.0%	0.0%	-0.5%	3.2
COc1ccc(Cc2nnc(SCC(=O)Nc3ccccc3C#N)o2)cc1	0.0%	-5.0%	-0.2%	.

Not all compounds are listed; count on the stated rates, not on these rows.
